Source: PubChem
VACV Venus inh: inhibitors of vaccinia virus (Venus reporter). Vaccinia virus Venus reporter expression, fluorescence. Potency, µM (top dose mostly 36.5 µM), for the others: at the top dose activity change, negative = inhibition, most hits filed as inhibitors. actives 0.46% (n = 330,000). AID 720580; active means well fitted inhibition curve with a large enough effect; inconclusive means small, poorly fitted or top-dose-only effect; inactive means no such curve, though single readings can be large or run the other way; tested in A549 cells; note: nearly all actives have a fitted effect of over 30% in size; inactives centre near -10
VACV mCherry inh: inhibitors of vaccinia virus infection (mCherry reporter signal); Vaccinia virus mCherry reporter infection, fluorescence; about a quarter of the inactives have no number; Potency, µM (series often up to 36.5 µM), for the others: at the top dose activity change, negative = inhibition, hits mostly inhibitors; actives 0.63% (n = 310,000); active = well fitted inhibition curve with a large enough effect; inconclusive = small, poorly fitted or top-dose-only effect; inactive = no such curve, though single readings can be large or run the other way; tested in A549 cells; note: nearly all actives have a fitted effect of over 35% in size; inactives centre near -10
* marks the source's active call; other numbers are inactive results; i = inactive; ? = inconclusive; · = not tested or not shown; & = joins results of further samples; [ ] = dose if it differs, or a comment. % is set by controls: 0 for no effect and ±100 for the full control effect; potency is the fitted concentration of half-maximal effect. Outcome played no part in choosing rows, and some 0.87% of all compounds hit somewhere here.

SMILES	VACV Venus inh	VACV mCherry inh
Cc1ccc(C(=O)C2(C)N(O)C(C)C(c3cccs3)=[N+]2[O-])cc1 (centres undefined)	-12%	-5%
O=C(Nc1cccs1)Nc1cccnc1Cl	2%	-18%
O=C(CCCn1c(=O)c2ccccc2n(CC(=O)NCc2ccco2)c1=O)NCc1ccco1	-33%	·
O=C(CN(CC1CCCO1)C(=O)CNS(=O)(=O)c1ccccc1)NCCc1ccccc1 (centres undefined)	-8%	-3%
CCO[C@H]1OC(C(N)=O)=C[C@@H](c2coc3ccccc3c2=O)[C@@H]1CCCO	-4%	-10%
O=C(O)C1CC(=O)n2c(nc3ccccc32)S1 (centres undefined)	-7%	-11%
O=C(Cn1nnc(-c2ccc(F)cc2)n1)N1CCCCC1	-14%	i
Cc1ccccc1CS(=O)(=O)CCC(=O)NCCCN1CCN(c2ccccc2F)CC1	-16%	·
Cc1ccccc1-n1c(SCC(=O)NCc2cccs2)nc2ccccc2c1=O	-10%	i
C=CCn1c(SCC(=O)N2CCC(C)CC2)nc2c([nH]c3ccccc32)c1=O	?	?
COc1ccc2oc(=O)c(-c3cn4c(n3)sc3cc(OC)ccc34)cc2c1	-3%	-11%
Cc1cc(C(=O)Nc2ccc(CC(=O)O)cc2)c(C)o1	-4%	-15%
O=C(c1ccco1)c1cn(CC(=O)N2CCCc3ccccc32)c2ccccc12	-8%	·
Cc1cccc(N2CCN(S(=O)(=O)c3ccc4c(c3)CCCN4C(=O)C3CCC3)CC2)c1C	-22%	-19%
O=C(CN1CC(=O)Oc2ccccc21)OCC(=O)c1ccc(Br)cc1	-16%	-10%
Cc1ccc(S(=O)(=O)/N=S(/c2ccccc2)C(C)C)cc1 (centres undefined)	-4%	i
CCCCC(=O)N(C)c1c(CC)nc2c(OCC(=O)N(C)C)cccn12	11%	15%
CCN(CC)CCn1c(C)nc2c(sc3nc4c(cc32)COC(C)(C)C4)c1=O	-16%	i
CCn1cc(C(=O)OCC(=O)NCc2ccccc2Cl)c(=O)c2ccc(C)nc21	-21%	-22%
Cc1ccc(C(=O)Nc2nnc(-c3cccs3)s2)cc1C	-16%	·
CC(=O)Nc1cccc(-c2ccnc3c2CC(C(=O)NCc2ccc(N4CCN(C)CC4)cc2)O3)c1 (centres undefined)	-5%	24%
CCOCCCn1c(SCc2nc3ccccc3s2)nc2ccccc2c1=O	-5%	i
COc1ccc(C(=O)N/C(=C\c2cccc3ccccc23)C(=O)NCCc2c[nH]c3ccccc23)cc1OC	-16%	·
COc1cc(C(=O)N(C(C)C)C2CCCCC2)cc(OC)c1OC	2%	-6%
CCCCNC(=S)NCCN1CCN(C(=S)NCCCC)CC1	-12%	-13%

Reprinted from the part before: 6 entries, followed by the next part.
SMILES	VACV Venus inh	VACV mCherry inh
Cc1ccc(C(=O)Nc2nnc(-c3cccs3)s2)cc1C	-16%	·
CC(=O)Nc1cccc(-c2ccnc3c2CC(C(=O)NCc2ccc(N4CCN(C)CC4)cc2)O3)c1 (centres undefined)	-5%	24%
CCOCCCn1c(SCc2nc3ccccc3s2)nc2ccccc2c1=O	-5%	i
COc1ccc(C(=O)N/C(=C\c2cccc3ccccc23)C(=O)NCCc2c[nH]c3ccccc23)cc1OC	-16%	·
COc1cc(C(=O)N(C(C)C)C2CCCCC2)cc(OC)c1OC	2%	-6%
CCCCNC(=S)NCCN1CCN(C(=S)NCCCC)CC1	-12%	-13%
CN(Cc1nc2ccccc2c(=O)[nH]1)C(=O)c1ccc(NC(=O)CSc2nnnn2C)cc1	-16%	-8%
COc1cc(C(C)=O)ccc1OCC(O)CN1CCN(c2c(C)cccc2C)CC1 (centres undefined)	-21%	-17%
Cc1ccc(Nc2nnc(SCC(=O)Nc3cccc(S(=O)(=O)NC4=NCCCCC4)c3)s2)cc1	-26%	-22%
Nc1ccn(Cc2ccccc2)n1	0%	-11%
CCOC(=O)n1c2ccccc2c(=O)n1CCO	-7%	i
CCCCOc1ccc(NC(=O)CCSc2nccn2C)cc1	-8%	-2%
CC(=N\Nc1ccc(Cl)cc1)/C(=N/O)C(=O)Nc1ccccc1	?	·
C1=C(C(c2nnnn2C2CCCCC2)N2CCCCC2)COc2ccccc21 (centres undefined)	-4%	-15%
COc1ccccc1NC(=O)CN1C(=O)C(c2ccc(F)cc2)=NC12CCCCC2	-10%	-9%
CC(C)(C)c1cc(/C=C(\C#N)C(N)=S)cc(C(C)(C)C)c1O	?	?
O=C(COc1ccccc1Cl)N1CCN(c2ccccn2)CC1	-2%	-19%
CN1CCC(C)(C(=O)Nc2cccc(Oc3ccccc3)c2)C1 (centres undefined)	13%	40%[activator]
CN1CCN(C(=O)C2=C[C@H](c3csc4ccccc34)C[C@H](OCCCCO)O2)CC1	-10%	-9%
C(=N\NC1=Nc2cccc3cccc1c23)/c1ccccn1	?	?
Cn1cc(C(=O)NCc2ccc(F)cc2)c(=O)c2cc(S(=O)(=O)N3CCCCC3)ccc21	-23%&-11%	-6%
CCc1nc2ccc(C(=O)N3CCN(c4ccc(Cl)cc4)CC3)cc2nc1CC	-6%	-3%
COc1cccc(CNC(=O)COC(=O)c2ccc(S(C)(=O)=O)c([N+](=O)[O-])c2)c1	-17%	-14%
Cc1ccc(N2CCn3c2nc2c3c(=O)n(Cc3cccc(Cl)c3)c(=O)n2C)cc1C	-18%	-23%
O=C(CN1C(=O)S/C(=C\c2ccccc2F)C1=O)NCCCn1ccnc1	-13%	-27%
CCN(CC)C(=O)CSc1nnc(-c2cccs2)n1Cc1ccco1	-10%	·
COc1ccc(/C(C)=N/NC(=O)Cc2c(C)nc(C)[nH]c2=O)cc1	-15%	-11%
N#Cc1ccc(NC(=O)COC(=O)CCc2nc3ccccc3c(=O)[nH]2)cc1	-5%	i
C=CC(C)(C)c1cc2cc3ccoc3cc2oc1=O	-6%	i
COc1ccc(/C=C/CN2CCN(Cc3ccc(C)cc3)C(CCO)C2)cc1 (centres undefined)	-2%	-9%
O=C(C[n+]1ccccc1)Nc1ccccc1Br	4%	i

Three compounds already listed, ordered by count of non-hydrogen atoms, descending:
SMILES	VACV Venus inh	VACV mCherry inh
COc1ccc(/C=C/CN2CCN(Cc3ccc(C)cc3)C(CCO)C2)cc1 (centres undefined)	-2%	-9%
CCN(CC)C(=O)CSc1nnc(-c2cccs2)n1Cc1ccco1	-10%	·
Nc1ccn(Cc2ccccc2)n1	0%	-11%

Remaining list, next part.
SMILES	VACV Venus inh	VACV mCherry inh
CCCOC(=O)Nc1nnc(CCC)s1	-8%	-15%
Cc1ccc(-c2nc3ccccc3o2)cc1NC(=S)NC(=O)c1cc2ccccc2o1	-12%	i
CCCCN(CC)C(=O)c1ccc2c(c1)NC(=O)c1ccccc1S2	0%	-5%
CCCCNCCS(=O)(=O)NCc1ccccc1	4%	i
COc1cccc(CCNC(=O)COc2cccc3c2OC(C)(C)C3)c1	-9%	-10%
COC(CNC(=O)c1c[nH]c2ccc(S(=O)(=O)N3CCC4(CC3)OCCO4)cc2c1=O)OC	-22%	-10%
COc1cccc(CNS(=O)(=O)c2ccccc2Br)c1OC	-10%	-10%
CSc1ccc(CCNC(=O)Cn2ccc3cc(S(=O)(=O)N4CCCCCC4)ccc32)cc1	-9%	-19%
Cc1ccc2[nH]c(=O)c(C(c3nnnn3CCc3ccccc3)N3CCOCC3)cc2c1 (centres undefined)	-5%	-17%
O=C(O)CSCC(=O)NCc1ccccc1Cl	2%	i
CN(C)C(=O)On1c(-c2ccccc2)nc2ccc(Cl)cc21	?	·
Cc1ccc(NC(=O)Cc2ccccc2Cl)cc1S(=O)(=O)N(C)C	-22%	?
Cc1cc(C)nc(NS(=O)(=O)c2ccc(NC(=O)CSc3ncn[nH]3)cc2)n1	-3%	-1%
CC(=O)OCCCN1c2ccccc2Nc2nnc(-c3ccccc3)cc21	?	-28%
COc1cccc(/C=C2\SC(=S)N(C(C)C(=O)NC3C=CS(=O)(=O)C3)C2=O)c1 (centres undefined)	-19%[7.34 µM]	i[7.34 µM]
CCOc1ccc2oc(C(=O)NC3CCN(Cc4ccccc4)CC3)c(C)c2c1	-20%	-13%
O=C(CSc1nnc(CNC(=O)c2ccco2)o1)NC1CCCC1	5%	11%
COC(=O)CC(=O)CSc1nc2c(cc1C#N)CCCCC2	-1%	-6%
O=C(COc1ccccc1)N1CCN(C(=O)c2ccccc2F)CC1	0%	i
CCc1ccc(CCC(=O)N2CCN(S(=O)(=O)c3sc(C(=O)O)c(C)c3C(=O)O)CC2)cc1	0%	-9%
COc1ccc(NS(=O)(=O)c2ccc(OCC(=O)N3CCOCC3)cc2)cc1Cl	-23%	0%
Cc1ccc(C(=O)NCC(=O)Nc2ccc(Cl)cc2)s1	-3%	-8%
COc1ccc(NC(=S)N2CCN(S(=O)(=O)c3ccc(F)cc3)CC2)cc1OC	-15%	-1%
Fc1ccccc1N1CCN(C(c2ccncc2)c2nnnn2C2CCCC2)CC1 (centres undefined)	-12%	i
COc1cc(NC(=O)CN(C)Cc2cccc(F)c2)c(C)cc1[N+](=O)[O-]	-1%	i

Single entries from the results shown.
COc1cccc(CNS(=O)(=O)c2ccccc2Br)c1OC in VACV Venus inh has -10%
COc1cccc(CCNC(=O)COc2cccc3c2OC(C)(C)C3)c1 in VACV mCherry inh has -10%
COc1ccc(NC(=S)N2CCN(S(=O)(=O)c3ccc(F)cc3)CC2)cc1OC in VACV Venus inh has -15%
O=C(CSc1nnc(CNC(=O)c2ccco2)o1)NC1CCCC1 in VACV Venus inh has 5%

Remaining list, next part:
SMILES	VACV Venus inh	VACV mCherry inh
O=C(c1ccc(F)c(F)c1)N1CCOc2ccc(CN3CCN(CCO)CC3)cc2C1	0%	i
O=C(CCC(=O)N1CCN(S(=O)(=O)c2cccc(F)c2)CC1)c1cccs1	-6%	i
COc1ccc(C(=O)Nc2sc3c(c2C(=O)NCc2ccco2)CCCC3)cc1OC	-8%	-11%
CC(=O)c1ccc(Cc2ccc(C(C)=O)s2)s1	-12%	-20%
O=C(COc1ccc(S(=O)(=O)NC2CCCCC2)cc1Cl)NCc1cccnc1	-8%	-13%[1.46 µM]
Cc1ccc(C)c(-c2csc(NC(=O)C3=COCCO3)n2)c1	-7%	-11%
COC(=O)[C@@H]1C[C@H](NC(=O)c2ccccc2C(F)(F)F)CN1Cc1cccc(O)c1	-5%	-15%
CC1CCN(C(=O)CSCC(=O)O)CC1	-4%	5%
CC(=O)Nc1ccc(NC(=O)C2CCCN2C(=O)NC2CCCCC2)cc1 (centres undefined)	7%	1%
CC(NS(=O)(=O)c1cccc(C(=O)O)c1)C12CC3CC(CC(C3)C1)C2 (centres undefined)	-11%	-16%
CC1CCN(S(=O)(=O)c2cc3c4c(c2)CCN4C(=O)CC3)CC1	-13%	-14%
CCCCn1c(SC(C)C(=O)c2ccc(OC)cc2)nc2cc(S(N)(=O)=O)ccc21 (centres undefined)	-14%	-20%
O=C(CCc1ccccc1)NNc1ccc(F)cc1	1%	?
COc1ccc(S(=O)(=O)Oc2ccc3cccc(N)c3c2)cc1	-13%	-18%
C=C(C)CNC(=S)N/N=C(\C)c1ccc(OC)cc1	-23%	?
Brc1cccc(-c2nc3c4ccccc4ccn3c2Cc2ccccc2)c1	18%	1%
Oc1ccc2ccccc2c1C=NC1CCCCC1	-3%	?
NC(=O)c1cc([N+](=O)[O-])ccc1NCc1cccc(N)c1	-29%	?
Cc1cccc(C)c1-n1ncc(C(=O)NCCCN2CCC(C)CC2)c1C1CCN(C(=O)OC(C)(C)C)CC1	-17%	-16%
Cc1ccc(Cl)cc1N(C)C(=O)c1cc2ccc3cccnc3c2[nH]1	-2%	-14%
C=CCSc1nc2sc3c(c2c(=O)n1CC=C)CCc1ccccc1-3	-5%	-15%
Cc1ccccc1-n1ncc2c(SCC(=O)NCc3cccs3)ncnc21	?	-26%
CCc1ccc(C(=O)CSc2nnc(C)c(=O)[nH]2)cc1	6%	-5%
CN(C1CCCCC1)S(=O)(=O)c1ccc(C(=O)N2CCN(c3nc4ccccc4s3)CC2)cc1	-9%	-2%
O=C(Cc1c(F)c(F)c(F)c(F)c1F)Nc1nc(-c2ccccc2)cs1	-3%	-18%

Single records, as listed above:
Cc1cccc(C)c1-n1ncc(C(=O)NCCCN2CCC(C)CC2)c1C1CCN(C(=O)OC(C)(C)C)CC1 in the list: VACV Venus inh: -17%; VACV mCherry inh: -16%
COC(=O)[C@@H]1C[C@H](NC(=O)c2ccccc2C(F)(F)F)CN1Cc1cccc(O)c1 in the list: VACV Venus inh: -5%; VACV mCherry inh: -15%

(further entries)
SMILES	VACV Venus inh	VACV mCherry inh
CC(=O)c1c(C)cc(C)c(CSc2ccccn2)c1C	-15%	-4%
Cc1cc2oc(C(=O)N(Cc3ccccc3)C3CCS(=O)(=O)C3)cc(=O)c2cc1Cl (centres undefined)	-5%	-9%
CC(C)Oc1cc(N)c(Cl)cc1Cl	-14%	i
O=C(NCc1nc(-c2ccc(C(F)(F)F)cc2)no1)Nc1ccc(OC(F)(F)F)cc1	?	?
CCOc1ccc2[nH]c3nc(SCC(=O)NCC4CCCO4)nnc3c2c1 (centres undefined)	-18%	-5%
N#CC1=C(N)OC2=C(C(=O)CCC2)C1c1ccoc1 (centres undefined)	-1%	-13%
CN(C(=O)c1cccc(NC(=O)Cc2cccc(NC(=O)C3CCCN(C(=O)c4ccccc4)C3)c2)c1)C1CCC1 (centres undefined)	-9%	-29%
O=S(=O)(Nc1ccccc1N1CCOCC1)c1cccs1	-7%	i
Cc1nn(C)cc1CNCc1ccc(OCC(O)CN(C)Cc2ccccc2)cc1 (centres undefined)	2%	-8%
